TRPML1 blocker – blocks the human TRPML1 channel; TRPML1-inducible cells, Ca2+ dye fluorescence, FDSS; stronger effect = lower value; inhibition of EC80 agonist-evoked calcium signal; activity change, negative = inhibition, % (concentration not given with the values); 0.02% of 390,000 active; Q9GZU1; in the data active means activity change below about -50%; inconclusive means about -30% to -50%; inactive means above about -30%;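 further: stimulus is agonist 54-4 at its EC80 concentration; on the % scale 0 is the no-effect control and ±100 the full control effect; compound concentration not given in the record; the text of the record puts the active cut at -80%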
Target sequence (Q9GZU1 whole entry, looked up): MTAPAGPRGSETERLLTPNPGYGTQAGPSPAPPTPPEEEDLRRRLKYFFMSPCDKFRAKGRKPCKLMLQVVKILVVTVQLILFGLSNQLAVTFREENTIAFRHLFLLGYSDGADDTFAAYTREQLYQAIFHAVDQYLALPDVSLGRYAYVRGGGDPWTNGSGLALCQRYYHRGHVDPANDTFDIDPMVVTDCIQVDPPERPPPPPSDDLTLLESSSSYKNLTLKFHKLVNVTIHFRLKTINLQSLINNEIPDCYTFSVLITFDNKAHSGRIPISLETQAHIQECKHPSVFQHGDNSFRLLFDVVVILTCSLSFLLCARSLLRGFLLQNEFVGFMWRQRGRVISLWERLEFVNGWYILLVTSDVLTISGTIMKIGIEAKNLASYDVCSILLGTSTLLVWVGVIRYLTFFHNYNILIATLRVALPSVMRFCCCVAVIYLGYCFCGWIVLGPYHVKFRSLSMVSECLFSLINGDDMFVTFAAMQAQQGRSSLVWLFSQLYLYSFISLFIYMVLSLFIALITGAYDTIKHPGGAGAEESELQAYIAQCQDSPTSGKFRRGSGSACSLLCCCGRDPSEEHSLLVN
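Tet-induced TRPML1-DL cells loaded with Ca8 no-wash calcium dye were read kinetically on FDSS. Compound addition was followed by EC80 agonist 54-4 (4 uM final); inhibition was read over 110 s.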
D2 potentiator – potentiates the human D2 dopamine receptor allosterically; P14416; DiscoveRx D2 beta-arrestin cells, luminescence, 90 min; 100% = 57 uM dopamine signal; potentiation, % (no concentration beside the values); 0.23% of 360,000 active; active = potentiation of 50% or more; inconclusive = 30% to 50%; inactive = 30% or less;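 further: compound concentration not given in the record; tested on top of an EC20 dose of dopamine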
Target sequence (P14416 whole entry, looked up): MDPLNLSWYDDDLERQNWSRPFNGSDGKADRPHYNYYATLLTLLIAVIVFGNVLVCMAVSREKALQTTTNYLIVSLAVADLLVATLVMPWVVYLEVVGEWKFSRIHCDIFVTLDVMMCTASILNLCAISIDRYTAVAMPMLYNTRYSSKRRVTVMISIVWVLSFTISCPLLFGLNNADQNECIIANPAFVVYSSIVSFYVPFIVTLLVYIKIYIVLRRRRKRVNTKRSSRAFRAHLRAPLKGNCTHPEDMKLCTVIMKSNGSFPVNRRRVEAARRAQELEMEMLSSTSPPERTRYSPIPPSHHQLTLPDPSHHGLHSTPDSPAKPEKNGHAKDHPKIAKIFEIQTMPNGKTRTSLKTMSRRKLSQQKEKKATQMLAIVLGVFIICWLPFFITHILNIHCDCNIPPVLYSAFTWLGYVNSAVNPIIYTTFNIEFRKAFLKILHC
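PathHunter beta-arrestin assay in DiscoveRx D2 cells. Compounds were added with an EC20 of dopamine (50 nM final) for 90 min at 37 deg C. Luminescence was read 1 h after detection reagent, with 57 uM dopamine as the EC100 control.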
TRPV1 potentiator – enhances activation of the human vanilloid receptor TRPV1; TRPV1-expressing cells, Fluo-8 calcium influx, capsaicin EC20 potentiation; host cell line not named in the record; control for the full effect not named in the record; potentiation, % at 8.33 µM; Q8NER1; 0.02% of 320,000 active; AID 540277; active means potentiation above 80%; inconclusive means 30% to 80%; inactive means below 30%; further: 0% is about no effect
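Cells expressing TRPV1 were dye-loaded with Fluo-8 and read kinetically: 10 s baseline, 3 min after compound (agonist portion), then 2 min after EC20 capsaicin (allosteric enhancer portion). Calcium-bound dye fluorescence at 480/520 nm.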
CtBP-E1A inh – blocks the CtBP interaction with E1A; AlphaScreen GST-E1A/His-CtBP binding, 1536-well; stronger effect = lower value; control for the full effect not named in the record; activity change, % (concentration not given with the values); 0.49% of 340,000 active; AID 651724; in the data active means activity change below about -65%; inconclusive means about -30% to -65%; inactive means above about -30%; further: on the % scale 0 is the no-effect control and ±100 the full control effect
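GST-E1A and His-tagged CtBP (125 nM each as 5X stock) were preincubated with pin-transferred compound for 2 h at 37 °C in the dark, then glutathione donor and nickel acceptor beads were added for 1 h before AlphaScreen reading.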
TRPML1 agonist – agonists of human TRPML1 channel; Q9GZU1; TRPML1-expressing cells, Ca2+ dye fluorescence, FDSS; host cell line not named in the record; reference of the full effect not given here; activation, % (concentration not given with the values); 0.12% of 410,000 active; AID 624414; in the data active = activation above about 50%; inconclusive = about 30% to 50%; inactive = below about 30%; further: 0% is about no effect; the text of the record puts the active cut at 80%
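Agonist activity was taken from a 110 s kinetic Ca2+ dye read on the FDSS after pinning compounds onto TRPML1-DL cells. The cells were seeded at 1,500/well with Tet inducer, incubated about 16 h, then dye-loaded at room temperature.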
Six1-Eya2 blk – Six1/Eya2 interaction inhibition | Q15475+O00167 | AlphaScreen GST-Six1/His-Eya2 binding, biochemical; stronger effect = lower value; control for the full effect not named in the record | activity change, % (concentration not given with the values) | 0.56% of 360,000 active | AID 651725; in the data active = activity change below about -65%; inconclusive = about -30% to -65%; inactive = above about -30%; further: on the % scale 0 is the no-effect control and ±100 the full control effect
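Six1/Eya2 binding was read as AlphaScreen signal after compounds were pinned into GST-Six1 plus His-tagged Eya2 (5X stock 250/500 nM) in pH 8.0 Tris/NaCl/TCEP buffer, beads added, then incubated 1 h, 37 C, dark.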
* = called active by the depositor; ? = inconclusive; · = not tested or not shown.

Each structure is followed by: TRPV1 potentiator	D2 potentiator	Six1-Eya2 blk	TRPML1 agonist	TRPML1 blocker	CtBP-E1A inh
> NC(=O)CN1CCN(C(=O)Nc2ccccc2)CC1
    2.7	-6.1	9.8	0.8	9.9	0.0
> C=CCNC(=S)NNC(=O)COc1ccc2cc(Br)ccc2c1
    -9.8	4.4	-3.2	0.1	29.5	-18.9
> CCOC(=O)/C=C1\CC(=O)Nc2nonc2N1
    5.3	0.9	3.9	-0.1	16.5	2.1
> Cc1ccc(S(=O)(=O)N2CCN(C(=O)c3ccc(COc4ccccc4)o3)CC2)cc1
    6.5	-3.1	0.9	1.1	-7.1	-8.9
> N/C(=N\OC(=O)c1cccc(C(F)(F)F)c1)c1cnccn1
    -17.8	3.0	0.0	0.2	55.6	-6.0
> COc1ccc(-c2nc(CS(=O)CC(=O)NCCc3ccc(OC)c(OC)c3)c(C)o2)cc1 (centres undefined)
    -9.0	-3.0	0.3	-0.8	-9.6	-1.1
> CC(=O)NCCc1nc2ccccc2n1CCOc1ccc(C)cc1
    -22.5	-14.4	0.5	·	·	0.7
> Cc1ccc(/C=N/NC(=O)C2(O)c3ccccc3-c3ccccc32)o1
    0.6	-12.8	-2.6	-0.3	4.3	0.7
> O=C(N=Nc1c(O)[nH]c2ccccc12)c1cccc(S(=O)(=O)N2CCCCC2)c1
    -3.6	-14.8	-4.3	0.8	0.3	-2.0
> CNC(=O)c1ccsc1NC(=O)c1ccc(S(=O)(=O)N2CCCc3ccccc32)cc1
    -8.3	-1.1	-2.2	0.1	17.7	0.6
> COc1ccc(S(=O)(=O)Cc2ccc(C(=O)NC3CC3)o2)cc1
    ·	-1.7	6.7	3.8	-6.0	6.3
> CCOc1ccc(/C=N/OCC(=O)NCc2cccs2)cc1
    2.0	18.5	1.7	-0.9	-6.1	-1.0
> Cc1nn(Cc2ccccc2Cl)c(C)c1NC(=O)Cn1nc([N+](=O)[O-])c(Cl)c1C
    -30.1	-0.7	-0.8	-0.8	1.5	7.0
> CC(=O)NC(CC(=O)Nc1cccc(S(=O)(=O)N2CCCC2)c1)c1ccccc1 (centres undefined)
    29.1	-38.7	-0.8	0.0	-26.7	7.5
> c1ccc(Cc2c[nH]c3ccccc23)cc1
    10.1	-2.9	-9.0	1.7	1.2	0.6
> Cc1nn(C)c(C)c1NC(=O)c1cc2nc(-c3ccco3)cc(C(F)(F)F)n2n1
    22.5	-3.0	-9.7	-0.3	0.0	-11.1
> Cc1ccc(C(=O)N2CCCC(C(=O)c3ccc(Cl)cc3C)C2)cn1 (centres undefined)
    -1.8	-2.7	-3.4	-0.3	-0.6	4.3
> S=C(Nc1cccnc1)Nc1cccc2cnccc12
    5.6	16.4	-3.6	0.3	18.5	7.5
> CCOC(=O)c1cnc2c(OC)cccc2c1NCc1cccnc1
    -0.4	-4.1	4.3	-0.5	-4.5	-1.5
> CC1=C(C(=O)Nc2ccccc2Cl)C(c2ccc(N(C)C)cc2)NC(=O)N1 (centres undefined)
    -21.1	-8.0	-5.3	0.8	-6.9	-8.4
> Cc1ccc(CN2C(=O)C3CCCN3c3ncccc32)cc1 (centres undefined)
    11.3	-11.7	5.1	2.8	-16.8	·
> Cc1ccccc1NC(=O)/C(C#N)=C\c1cn(CC(=O)O)c2ccccc12
    2.5	3.0	12.0	-0.3	-18.2	-25.6
> NC(=O)C1CCN(C2=C(NS(=O)(=O)c3ccccc3)C(=O)c3ccccc3C2=O)CC1
    -2.0	-6.7	-6.0	3.6	43.5	?
> COC(=O)c1cn(NC(=O)c2ccc3c(c2)OCO3)c(=O)c2ccccc12
    -7.8	-12.1	-1.9	2.2	-4.0	-6.9
> CCCCOc1ccc(CSc2nnc(C)n2N)cc1[N+](=O)[O-]
    -3.6	-6.5	-0.7	1.1	-18.3	6.2
> CC(C)(C)NC(=O)CSc1n[nH]c(=O)n1-c1ccccc1
    15.3	-0.3	3.1	0.0	3.4	3.4
> COc1ccc(C(=O)Nc2nc(-c3ccc([N+](=O)[O-])cc3)c(-c3ccccc3)s2)cc1
    ·	-6.1	2.2	-0.1	0.4	0.0
> CCCCN1C(=O)C(CC(=O)NC2CCCCC2)CC(C(=O)N(C(C)C)C(C)C)=C1C (centres undefined)
    ·	10.3	6.8	-0.6	10.0	7.2
> O=C(O)C1C(=O)NCC1c1ccccc1 (centres undefined)
    -0.3	3.4	3.4	0.4	28.4	6.2
> O=C(Nc1ccc2c(c1)OCO2)Nc1ccccc1F
    -6.5	-4.5	0.8	-0.2	-10.3	-0.7

3 of the entries above in order of the CtBP-E1A inh value, rising.
| Molecule | D2 potentiator | Six1-Eya2 blk | TRPML1 blocker | CtBP-E1A inh |
| --- | --- | --- | --- | --- |
| COC(=O)c1cn(NC(=O)c2ccc3c(c2)OCO3)c(=O)c2ccccc12 | -12.1 | -1.9 | -4.0 | -6.9 |
| NC(=O)CN1CCN(C(=O)Nc2ccccc2)CC1 | -6.1 | 9.8 | 9.9 | 0.0 |
| CNC(=O)c1ccsc1NC(=O)c1ccc(S(=O)(=O)N2CCCc3ccccc32)cc1 | -1.1 | -2.2 | 17.7 | 0.6 |

The listing picks up; the 2 compounds before the break are reprinted first.
Each structure is followed by: TRPV1 potentiator	D2 potentiator	Six1-Eya2 blk	TRPML1 agonist	TRPML1 blocker	CtBP-E1A inh
> O=C(O)C1C(=O)NCC1c1ccccc1 (centres undefined)
    -0.3	3.4	3.4	0.4	28.4	6.2
> O=C(Nc1ccc2c(c1)OCO2)Nc1ccccc1F
    -6.5	-4.5	0.8	-0.2	-10.3	-0.7
> C#CCN(C[C@@H]1[C@@H](OC(=O)NCCCCCC)[C@@H](OC(=O)NCCCCCC)Cn2c(=O)ccc(=O)n21)S(=O)(=O)c1ccc(C)cc1
    ·	-5.4	-0.4	-0.4	14.9	-7.2
> Cc1cc(C)cc(N(CCC#N)C(=O)COC(=O)CN2C(=O)NC(C)(C)C2=O)c1
    18.4	11.3	2.7	0.1	-10.1	7.1
> Cc1ccc(C(=O)COC(=O)c2cccc(O)c2)s1
    -42.6	1.9	0.9	2.1	7.5	-17.2
> CC1(Cc2ccc(Cl)cc2)C(=O)Nc2ccc(-c3ccc(F)c(Cl)c3)cc21 (centres undefined)
    ·	-8.4	3.2	0.0	·	0.5
> CC(C)(C)N(C(=O)Cn1nnc(-c2ccc(F)cc2)n1)C(C(=O)NC1CCCC1)c1ccncc1 (centres undefined)
    -17.9	11.3	-1.1	-0.8	12.7	2.1
> Cc1ccc(CNc2nc(C)nc3sc4c(c23)CCC4)cc1
    -2.7	4.1	-3.2	0.3	16.7	1.3
> Cc1[nH]nc(C(F)(F)F)c1N=NN1CCOCC1
    ·	?	5.3	0.7	28.5	-0.3
> CC(C)c1cc(C(=O)OCC(=O)N2CCN(C(=O)c3ccco3)CC2)c(O)c(C(C)C)c1
    15.0	-3.0	0.1	0.2	-3.7	7.4
> Cn1c(/C=C/c2ccccc2[N+](=O)[O-])nc2ccccc2c1=O
    -4.1	1.6	-0.1	0.5	3.9	-23.8
> CCOc1cccc2cc(C(C)=O)oc12
    -17.1	9.7	-3.9	3.3	0.7	·
> Cc1ccc(OCc2nnc(SCC(=O)N3C(C)CCCC3C)o2)cc1 (centres undefined)
    -4.7	0.6	25.1	0.7	8.3	6.3
> CC(=O)Oc1ccc(OC(C)=O)c2c1CC(C)=C(C)C2
    -8.5	6.9	-17.9	1.3	-9.1	·
> CSc1ncccc1C(=O)N1CCN(S(=O)(=O)c2cc(C)ccc2C)CC1
    -4.8	-0.2	-4.1	5.2	0.9	2.6
> CCOc1ccc(N/C=C/C(=O)c2ccc(OC)cc2)cc1
    12.1	-2.6	2.7	0.6	11.4	-4.3
> Clc1ccc(OCCCNCc2ccccc2)c2ccccc12
    20.9	-15.2	-6.1	-0.2	-7.3	-4.9
> CC(C)Oc1ccccc1OCCCOc1cccc2cccnc12
    27.1	-0.5	-3.3	2.1	25.7	11.0
> NC(=O)COc1ccc2oc(-c3ccccc3)cc(=O)c2c1
    20.0	0.9	-13.9	-1.1	6.2	2.7
> S=c1nc(-c2cc(Cl)ccc2Cl)[nH][nH]1
    3.3	2.9	-1.3	1.0	-0.6	-1.5
> COc1ccccc1N1CCN(C(=O)CCNS(=O)(=O)c2cc(Br)cnc2N)CC1
    8.4	-12.9	0.5	0.4	13.4	-3.9
> Cc1ccc(C(=O)OC(C)CN2C(C)CCCC2C)cc1 (centres undefined)
    16.1	-8.5	10.6	-0.8	-7.6	6.1
> COc1ccc(C(CNC(=O)CNC(=O)c2ccccc2)N2CCCC2)cc1 (centres undefined)
    9.7	-2.6	1.7	2.0	-6.9	-1.3
> CC(=O)c1ccc(N(C(=O)CNC(=O)c2ccco2)C(C(=O)NC2CCCC2)c2ccc(C)o2)cc1 (centres undefined)
    4.5	-9.6	4.0	-0.9	-7.0	28.5
> COc1ccc(-c2cc(C#N)nc(N3CCN(c4ccccc4)CC3)n2)cc1
    -11.5	-0.1	-2.9	1.8	11.8	0.1
> c1ccc2c(NC3CCCC3)nnc(NC3CCCC3)c2c1
    -3.7	-42.5	0.9	23.2	-4.0	0.2
> CCCCCn1c(N(C)Cc2ccccc2)nc2c1c(=O)[nH]c(=O)n2C
    -1.0	-1.6	-12.6	-0.2	-0.6	-4.0
> O=C(Cn1nc(CNc2ccc(Cl)cc2)[n+]2c1CCCCC2)c1ccc(Br)cc1
    -2.6	-23.2	7.6	0.3	15.6	-13.1
> COc1cccc(-c2noc(CCC(=O)NCC3CCCO3)n2)c1 (centres undefined)
    3.1	-4.9	4.1	-0.4	7.6	-3.2
> O=S1(=O)C=C(SCc2ccc(F)cc2)Nc2ccccc21
    -2.1	-9.0	3.7	0.0	20.5	2.5
> Cc1ccc(S(=O)(=O)N2CCOCC2)cc1NC(=O)CNCc1cccnc1
    -6.9	62.6*	4.2	-0.8	-7.8	·
> Cc1ccc(C(=O)CSc2nc3c([nH]2)c(=O)n(C)c(=O)n3C)cc1
    6.1	-7.8	-7.9	0.8	-8.9	·
> COc1ccc(C2=NN(S(C)(=O)=O)C(c3cccs3)C2)cc1 (centres undefined)
    -2.0	7.3	5.7	1.6	-16.0	-1.7
> CC1(C(=O)NCC2CCCCC2)CCN1CCc1ccccc1 (centres undefined)
    ·	-19.3	1.8	0.4	·	5.8
> O=C(Oc1ccc(-c2nnco2)cc1)C1CCN(C(=O)c2ccc(F)cc2)CC1
    4.8	-17.3	-8.0	0.1	20.0	-4.1
> C/C(=N\NC(=O)c1ccc(F)cc1)c1ccc(NC(=O)Cc2ccccc2)cc1
    6.4	-23.7	2.7	-0.8	1.3	-5.8
> Cc1occc1-c1nnc(SCC(=O)Nc2ccccn2)o1
    8.3	-2.1	-0.8	-0.4	-0.5	-6.9
> CCCCCC(C(=O)O)C(C)CC(=O)NC1CCCCC1 (centres undefined)
    24.8	-16.7	4.7	0.5	-19.9	3.2
> CC1=NN(C(N)=S)C(=O)C1N=Nc1ccccc1C(=O)O (centres undefined)
    2.5	-5.3	-9.2	·	·	·
> CC(NC(=O)COc1ccc(-c2ccccc2)cc1)C1CCCO1 (centres undefined)
    -24.8	-5.4	-28.6	0.5	-3.4	-3.4
> CCOC(=O)c1cc(NC(=O)COc2ccc([N+](=O)[O-])cc2)cc(C(=O)OCC)c1
    -5.9	20.9	1.9	1.0	-2.4	5.4
> Cn1c(/C=N/n2cnnc2)nc2ccccc21
    1.1	-3.3	4.9	0.5	-3.7	6.1
